Assay outcomes from PubChem.
Yeast UUG start: modulators of yeast start codon fidelity, primary screen, whole organism, S. cerevisiae, single point, plate reader; S. cerevisiae UUG-firefly luciferase reporter, luminescence/redox ratio; activity score, % at 18.7 µM; AID 602363, 2012; 0.13% of 350,000 active;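 active = replicate mean at a twofold rise or more, about +100% in these data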;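 note: firefly luciferase made from a UUG start codon reports start codon fidelity; reporter light over untreated wells divided by growth signal over untreated wells; some hits fall short of that in this replicate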
Rce1 inhib: yeast Rce1p protease inhibitors, primary screen, biochemical, fluorescence, cell-free homogeneous; CAAX prenyl protease 2 (Saccharomyces cerevisiae (strain ATCC 204508 / S288c)), Q03530; yeast membranes, quenched prenylated peptide cleavage fluorescence; calls only; 0.27% of 290,000 active; AID 2563, 2010;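 active = fall in fluorescence gain of 50% or more versus controls, with final raw signal at or below 3038400; inconclusive = same 50% fall but final raw signal above 3038400; inactive = fall in fluorescence gain under 50%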;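 note: plate controls were neutral control wells for no effect and wells lacking membranes for full effect; tested at 10 µM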
eIF4H FP inh: human eIF4H binding inhibitors, primary screen, translation initiation inhibitor project, biochemical, uHTS, fluorescence polarization; 0.94% of 290,000 active; Eukaryotic translation initiation factor 4H (Homo sapiens), Q15056; inhibition, % at 35 µM; eIF4H fluorescence polarization binding assay;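 active = 50% or more with normal probe brightness, or confirmed in later tests; inconclusive = above 50% with abnormal brightness, or retests that disagree; inactive = below 50% or failed in later tests; about a fifth of its hits are not listed in these tables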;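 note: calls also rest on retests at 20 µM and on dose response follow-up; 0% = protein and probe with vehicle and 100% = probe without protein; strong numbers were not always called active; many hits fall short of the cut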
CSC inhib: cancer stem cell viability inhibitors, primary screen, luminescence. cancer stem cell-like cells viability. inhibition, % at 7.5 µM. 1.1% of 300,000 active. AID 2717, 2010;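 active = mean at 75% or more and at least half the replicates too; inconclusive = mean and replicates disagree; tested in HMLE shEcad cells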;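 note: 0% = median of negative and 100% = median of positive control wells; the first replicate is given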
PABP FP inh: PABP poly(A) RNA binding inhibitors, primary screen, biochemical, fluorescence polarization, uHTS; Polyadenylate-binding protein 1 (Homo sapiens), P11940; inhibition, % at 35 µM; 1% of 290,000 active; AID 2014, 2009;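 active = 50% or more with normal probe brightness, or confirmed in later tests; inconclusive = above 50% with abnormal brightness, or retests that disagree; inactive = below 50% or failed in later tests; about a fifth of its hits are not listed in these tables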;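 note: calls also rest on retests at 20 µM and on dose response follow-up; controls were probe without protein and protein plus probe with vehicle; some compounds called inactive have numbers as strong as hits; many hits fall short of the cut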
Target sequence (P11940 whole entry, looked up): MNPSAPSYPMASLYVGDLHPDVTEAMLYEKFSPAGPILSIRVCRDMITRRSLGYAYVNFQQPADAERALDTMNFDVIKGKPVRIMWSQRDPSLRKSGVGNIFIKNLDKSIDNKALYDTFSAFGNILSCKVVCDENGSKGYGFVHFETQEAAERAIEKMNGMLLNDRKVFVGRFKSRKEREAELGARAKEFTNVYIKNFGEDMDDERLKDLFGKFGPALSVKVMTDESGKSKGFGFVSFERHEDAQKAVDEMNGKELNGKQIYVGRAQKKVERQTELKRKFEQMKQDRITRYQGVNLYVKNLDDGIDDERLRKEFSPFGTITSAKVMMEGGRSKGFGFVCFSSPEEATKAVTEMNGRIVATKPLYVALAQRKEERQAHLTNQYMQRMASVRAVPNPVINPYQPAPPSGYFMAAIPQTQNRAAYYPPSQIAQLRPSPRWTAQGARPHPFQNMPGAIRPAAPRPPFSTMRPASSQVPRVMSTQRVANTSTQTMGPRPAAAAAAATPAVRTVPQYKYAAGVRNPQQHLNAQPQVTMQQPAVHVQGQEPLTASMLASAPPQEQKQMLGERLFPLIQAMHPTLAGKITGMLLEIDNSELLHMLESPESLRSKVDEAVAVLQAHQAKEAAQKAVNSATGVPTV
Env fusion inh: inhibitors of HIV-1 Env-driven cell-cell fusion, primary screen, HeLa-JRFL effector, CEM21 target cells, luciferase. inhibition, % at 12.3 µM. 1.1% of 360,000 active. AID 651610, 2012;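 active = mean replicate inhibition score of at least 50 and every replicate individually at or above 50; inconclusive = only one of the two criteria met; inactive = mean below 50 and not all replicates reaching 50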;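 note: 0% = plate neutral controls and 100% = maraviroc near 300 nM; one replicate is shown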
MT1-MMP act inh: blockers of MT1-MMP proenzyme processing, primary screen, HT1080 RFP-PRO-GFP cells, GFP/RFP fluorescence. 0.061% of 360,000 active. AID 651647, 2012. GFP/RFP ratio change, % at 20 µM. GFP/RFP ratio fluorescence, overnight; percent of plate control window, DMSO zero;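 active = GFP/RFP ratio change of at least 30% with cell ATP level not reduced by more than half and red fluorescence within 50% of control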; note: strong numbers were not always called active
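Read-out: GFP/RFP fluorescence ratio; Test system: RFP-PRO-GFP reporter HT1080 cells; Compound dosing: single-point 20 µM compound, 1% DMSO; Times: overnight compound exposure at 37 °C.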
MT1-MMP act inh RFP: recorded beside MT1-MMP act inh, whose call it bears; RFP signal change, %; measured here: RFP expression control read;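 0 = vehicle wells; hits needed this value within 50% of zero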
An asterisk follows results filed as active; i = inactive; ? = inconclusive; . = no result given; & = joins results of further samples. An excerpt, so the mix of outcomes need not match the whole.

SMILES | Yeast UUG start | Rce1 inhib | eIF4H FP inh | CSC inhib | PABP FP inh | Env fusion inh | MT1-MMP act inh | MT1-MMP act inh RFP
Cc1ccc(-c2nn(C)c(=O)c3ccccc23)cc1S(=O)(=O)N1CCCC1 | 9.4 | i | -3.2 | 14.9 | -2.4 | 16.6 | 4.0 | -4.6
CCOC(=O)Cc1csc(NC(=O)CN2CCCCC2)n1 | -1.9 | i | 0.9 | -14.0 | 3.7 | 17.0 | 1.5 | -1.7
O=C(Nc1ccc(C(=O)N2CCOCC2)cc1)C1CCCC1 | -3.7 | . | . | . | . | -11.4 | -0.5 | 6.7
CCOC(=O)c1c(-c2cccs2)csc1NC(=O)CN(CC)CC | 30.1 | i | -4.0 | -4.8 | 6.7 | -4.6 | -6.0 | -8.8
CCOC(=O)CNc1nc(C(C)(C)C)nc2c1nnn2Cc1ccccc1 | -22.8 | i | -8.3 | 12.5 | 6.0 | -5.2 | 3.2 | -8.2
CN1C(=O)[C@H]2[C@@H](c3ccccc3)N[C@]3(CCCN(Cc4ccco4)C3=O)[C@H]2C1=O | -12.0 | . | . | . | . | -13.2 | 3.9 | 7.7
Cn1nc(N)c2ncc(C(Cl)(Cl)Cl)nc21 | -13.4 | . | . | . | . | -6.5 | 1.7 | 4.1
COc1ccc(O)c(/C=N/NC(=S)Nc2cccc(S(=O)(=O)N(C)C)c2)c1 | -24.6 | i | 10.3 | 96.9* | -0.8 | 1.7 | 1.4 | -13.5
COc1ccc(NS(=O)(=O)c2ccc(C)c(C(=O)NCc3ccccc3CN3CCCC3)c2)cc1 | 4.7 | . | . | . | . | 5.7 | 1.4 | 1.3
COc1ccc(C(C(=O)NC2CCCCC2)N(Cc2ccco2)C(=O)c2snc(C(N)=O)c2N)cc1 (stereo not drawn) | -46.9 | i | 1.1 | . | 11.4 | 15.7 | -1.6 | -1.6
Cc1nn(-c2ccccc2)c(Cl)c1C(=O)NCCN(C)C | . | i | 1.0 | -4.5 | -14.2 | 5.7 | 2.0 | 0.9
COc1ccc(NC(=O)CSCC(=O)NCc2ccco2)cc1 | -2.1 | i | . | -9.4 | . | . | 2.8 | -1.7
Clc1ccc(CSc2nccn2Cc2ccccc2)cc1 | -26.4 | i | -5.2 | 2.9 | -3.2 | 27.5 | -7.1 | -16.1
Cc1cccc(S(=O)(=O)c2c(N)n(-c3ccccc3)c3nc4ccccc4nc23)c1 | 3.0 | i | 8.8 | 9.6 | -5.6 | 11.9 | 3.9 | -0.1
Cc1c(Cl)c(C(F)(F)F)nn1CC(=O)NCc1ccco1 | . | i | 1.5 | -24.3 | 1.8 | -1.6 | 1.4 | 8.0
Cc1ncc(CSCC(=O)Nc2cc(C(F)(F)F)ccc2Cl)c(CO)c1O | -0.4 | i | 5.6 | -24.3 | 9.6 | -11.6 | 10.6 | -0.1
O=C(Nc1ccccc1C(F)(F)F)c1cc(S(=O)(=O)N2CCC3(CC2)OCCO3)ccc1F | . | i | -4.6 | -8.0 | -5.5 | 0.8 | 5.1 | 3.5
COc1cccc(C(=O)Nc2ccncc2)c1OC | 9.5 | i | -3.3 | -6.8 | -4.5 | 3.2 | 8.5 | -11.9
CCOC(=O)[C@@H]1[C@H]2COc3ccc(Br)cc3[C@H]2N2C(=O)N(c3cccc(F)c3)C(=O)[C@]12C | -17.4 | i | -7.8 | 13.4 | 0.4 | -46.9 | 0.2 | -6.7
CC(NC(=O)c1cc(COc2ccccc2)on1)c1nccs1 (stereo not drawn) | -15.6 | i | -15.5 | 15.1 | -0.2 | -56.8 | -0.3 | 2.1
COc1cccc(CNc2nc3cc(-c4ccccc4C)sc3c(=O)n2C)c1 | -11.3 | . | . | . | . | 6.0 | -6.0 | -10.1
CCN(C(=O)CN1C=NS(=O)(=O)c2ccccc21)c1ccccc1 | -3.5 | i | 0.7 | -5.3 | 10.5 | -13.3 | 0.7 | 1.2
O=C(c1ccc(COc2ccccc2Cl)o1)N1CCN(Cc2ccc3c(c2)OCO3)CC1 | -1.8 | i | -5.7&-3.1 | 43.9&34.5 | -4.0&9.7 | -9.5 | 3.7&2.8 | -2.5&6.2
CCCCc1cc(=O)oc2cc(C)cc(O)c12 | -9.2 | i | -2.5 | -12.0 | 8.1 | 2.6 | -7.6 | -11.8
FC(F)(F)c1ccccc1Cc1c(-c2ccccc2)nc2c3ccccc3ccn12 | -12.6 | . | . | . | . | -1.8 | -0.7 | 3.3
O=C1C[C@H](c2ccc(O)cc2)Oc2cc(O[C@@H]3O[C@H](CO)[C@@H](O)[C@H](O)[C@H]3O)cc(O[C@@H]3O[C@H](CO)[C@@H](O)[C@H](O)[C@H]3O)c21 | -24.4 | . | . | . | . | -2.1 | 0.6 | 3.0
O=C(Nc1ccc2c(c1)OCO2)C(c1ccccc1)N1CCN(C(=O)c2ccco2)CC1 (stereo not drawn) | -0.3 | i | 4.1 | -5.6 | -0.8 | -365.8 | -1.3 | 0.3
Cc1ccccc1N(C(=O)Cn1nnc(-c2cccs2)n1)C(C(=O)NCCC(C)C)c1ccco1 (stereo not drawn) | -14.6 | i | -0.2 | -7.5 | -0.8 | . | -19.3 | -18.2
CC(C)(NS(=O)(=O)OCC(Cl)(Cl)Cl)c1ccccc1 | -19.1 | i | 5.2 | 7.7 | -1.0 | -11.1 | 4.6 | 3.7
CC(=O)c1cccc(-n2nnnc2SCC(=O)Nc2cccc(NC(=O)c3ccco3)c2)c1 | 4.3 | i | -5.9 | -1.5 | 1.1 | -42.7 | -7.6 | -1.0
O=C(COC(=O)CNC(=O)C1CCCCC1)Nc1ccccc1OC(F)F | 5.1 | . | . | 1.7 | . | . | -1.8 | 2.8
C=CCC[C@@H](Cc1ccc(F)cc1)C(=O)OC[C@H](Cc1c[nH]c2ccccc12)NC(=O)[C@H](CC=C)CC(=O)N(CCO)Cc1ccccc1 | -24.8 | . | . | . | . | 38.9 | -10.0 | -24.1
CCN(CC)C(=O)[C@H]1CC(CC(=O)NCc2ccco2)C(=O)N2CCc3c([nH]c4ccccc34)[C@]12C (stereo partly drawn) | -16.0 | . | . | . | . | -84.6 | -0.7 | -0.9
COc1ccc(C(=O)C2CCCN(C(=O)c3cccc(N4CCCC4=O)c3)C2)cc1OC (stereo not drawn) | 9.6 | i | 7.7 | . | 7.7 | -7.4 | -2.1 | -2.0
CS(=O)(=O)c1ccc2nc(NC(=O)CN3C(=O)C4CC=CCC4C3=O)sc2c1 (stereo not drawn) | -16.4 | i | -1.2 | 9.6 | -1.2 | -7.8 | -4.2 | 1.5
COc1ccc(NCc2nnc(SCC#N)n2-c2ccccc2OC)cc1 | -21.6 | i | 3.6 | 18.4 | 0.7 | -24.7 | 1.3 | 5.9
COc1ccc(S(=O)(=O)N2CCCCC2)cc1NCC(=O)Nc1ccc(C)cc1 | -1.5 | i | -5.2 | -10.4 | -10.1 | 8.3 | -0.2 | -2.9
O=C(CSc1nc2ccccc2[nH]1)NC1CCS(=O)(=O)C1 (stereo not drawn) | -13.7 | i | -14.3 | -9.8 | -4.5 | . | 4.7 | 4.7
CCN(CC)c1ccc(C(=O)NNC(=O)C2CSC3(C)CCC(=O)N23)cc1 (stereo not drawn) | -3.0 | . | . | -13.3 | . | . | -0.7 | 1.8
Cc1nc2ccc(C(=O)N/N=C/c3ccccc3O)cc2[nH]1 | -5.4 | . | 2.7 | 54.1 | 3.3 | -29.4 | 3.2 | 0.9
COC(=O)c1ccc(NC(=O)CSc2nnc(COc3c(C)cccc3C)o2)cc1 | -12.6 | i | 2.8 | -16.9 | 3.0 | -28.7 | 1.5 | -3.2
CC(=O)c1ccc(N2CCN(C(=O)CCS(=O)(=O)c3ccc4c(c3)NC(=O)CS4)CC2)cc1 | -9.9 | i | 4.0 | -1.4 | 13.8 | -4.7 | -2.0 | -9.5
O=C(CN1C(=O)NC2(CCCC2)C1=O)NNC(=O)c1ccc(Br)cc1 | -4.4 | i | . | -5.3 | . | -5.1 | 8.9 | -1.5
Cc1cccc(NC(=S)N(CCCN(C)C)Cc2cc3cc4c(cc3[nH]c2=O)OCO4)c1 | . | i | -2.3 | . | 9.0 | 2.8 | -8.8 | -2.1
Cc1ccc(-c2nc(SCC(=O)NCC3CCCO3)c(-c3ccccc3)[nH]2)cc1 (stereo not drawn) | -7.7 | i | -11.7 | 6.4 | -4.3 | 20.0 | -8.8 | -17.1
CC1CN(C(=S)NC2CCCC2)CC(C)O1 (stereo not drawn) | -14.4 | i | 17.0 | -10.2 | -6.7 | -15.5 | -1.3 | 2.8
CSc1cccc(NC(=S)N2CCC(N(C)C3CCCCC3)CC2)c1 | -23.9 | i | -6.9 | . | -6.1 | 5.2 | 3.0 | 5.1
Cc1ccc(NC(=S)N(CCCN2CCOCC2)Cc2ccco2)cc1 | . | i | -4.1 | -8.4 | 1.9 | -1.7 | -2.7 | 1.2
C[C@@H]1NC(=O)c2cc([N+](=O)[O-])cc(F)c2NCCC[C@@H](C(N)=O)NC(=O)[C@H](CC(N)=O)NC1=O | 1.0 | i | -4.5 | -1.1 | -4.0 | -17.8 | -1.1 | 2.4
CC(=O)c1c(C)[nH]c(C(=O)Nc2cccc(C)n2)c1C | -46.3 | i | 3.0 | -12.1 | 1.0 | . | -7.8 | -0.9
O=C(c1cc(-c2ccc(F)cc2)on1)N1CCCCCC1 | -20.5 | i | 2.3 | 35.6 | 8.1 | -105.1 | -2.5 | -3.9
COc1ccccc1C1C(C(=O)c2sc(C)nc2C)=C(O)C(=O)N1CCN1CCOCC1 (stereo not drawn) | 0.4 | i | 8.0 | -8.9 | -0.2 | . | -5.4 | -0.8
CCC(C)NC(=O)Cn1c(=O)n(CCCCCC(=O)Nc2ccccc2)c(=O)c2sccc21 (stereo not drawn) | . | i | -0.2 | -16.1 | -0.6 | . | -0.6 | -1.7
CNNC(=S)NC1CC2CC1C1C=CCC21 (stereo not drawn) | -29.0 | . | -5.4 | -2.9 | 1.1 | -16.9 | 0.6 | 0.1
COc1ccc(NC(=O)CN2CCN(S(=O)(=O)c3ccc(C(C)C)cc3)CC2)cc1OC | -2.1 | i | -7.0 | -10.0 | -5.0 | . | -1.8 | -2.8
CCCCN(C=O)c1c(CC)nc2c(OCc3ccccc3C)cccn12 | -33.5 | . | . | . | . | -8.5 | 0.3 | -6.9
c1ccc(Cn2ncc3c(N4CCCCC4)ncnc32)cc1 | 5.7 | i | -5.4 | -4.6 | 15.6 | . | 9.4 | -3.3
CCCCC(=O)Nc1nc2c(s1)COc1ccccc1-2 | -11.7 | i | -1.1 | . | 1.5 | . | -2.8 | -10.5
CCC(C)(C)C1CCC(=NNS(=O)(=O)c2ccc(C)c([N+](=O)[O-])c2)CC1 (stereo not drawn) | . | i | 2.5 | 4.0 | ? | 21.1 | 0.5 | -0.2
CC(C)(CO)NC(=O)C(c1ccccc1)c1ccccc1 | -11.7 | i | -6.9 | 2.5 | 8.2 | -10.2 | 9.6 | 3.8
COc1ccc(CC(=O)OCn2nnc3ccccc3c2=O)cc1OC | . | i | 92.0* | -20.8 | 88.3* | 4.8 | -7.5 | -3.0
CC1CCN(c2nc3ccc(C(=O)NCCCN4CCCCC4C)cc3s2)CC1 (stereo not drawn) | -41.2 | i | -1.0 | 13.5 | -8.8 | -45.5 | 5.2 | 1.9
